Compound activity deposited in PubChem BioAssay by several laboratories.
HSV replic up = HSV replication enhancement; 220,000 tested, 0.005% active; HSV replication augmentation in cells, fold increase; maximum fold increase;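 active means peak rise of 1.5-fold or more in the series; inconclusive means self-fluorescent or not available for retest; tested in PC3 cells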;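 further: first round at 10 µM; read as green reporter fluorescence; hits show the peak of a series up to 25 µM; 1 = signal of infected wells without compound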
Insulin prom inh = TRM-6 insulin promoter activity inhibition; 130,000 tested, 0.9% active; TRM-6 cells (human fetal islet line), insulin promoter-eGFP reporter, imaging; reporter expression induced with tamoxifen; AID 1273; inhibition, % at 2 µM;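 active means inhibition above the mean plus 3 SD, with well images judged a real hit on visual review, cut at about 60% in these data, passing the limit was not always enough; inconclusive means inhibition over the cutoff but images rejected on review; inactive means inhibition not above the cutoff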
RGS16-Gao = RGS16-Galphao interaction regulator (human); 220,000 tested, 0.38% active; bead-based flow cytometry RGS16-Galphao binding, fluorescence; actives lie on both sides; O15492+P09471; binding response (% of control), % at 10 µM;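 active means below 25% or above 175%, edge rows of some plates excepted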;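 further: Galphao activated by GDP with aluminum fluoride before binding; 100% = wells without compound and 0% = beads without RGS; some results beyond the cut were filed as inactive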
GALR2 ag = GALR2 (human) receptor agonism; activation, %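 (tested at 5 µM)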; GALR2-expressing cells, agonist activation read-out; 140,000 tested, 0.48% active;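 active means above mean plus 3 SD of all compounds, about 5% in these data, not always enough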;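 further: 0% = vehicle buffer wells and 100% = reference agonist at full effect; tested in CHO reporter cells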
PKD1 kinase inh = PKD1 (human) kinase inhibition; inhibition, %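 (about 10 µM by stock and volumes)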; PKD1 kinase fluorescence polarization assay; 200,000 tested, 0.056% active; AID 797;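 active means inhibition of 50% or more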;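 further: controls were vehicle for no effect and a reference inhibitor for full effect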
Target sequence (Q15139 whole entry, looked up): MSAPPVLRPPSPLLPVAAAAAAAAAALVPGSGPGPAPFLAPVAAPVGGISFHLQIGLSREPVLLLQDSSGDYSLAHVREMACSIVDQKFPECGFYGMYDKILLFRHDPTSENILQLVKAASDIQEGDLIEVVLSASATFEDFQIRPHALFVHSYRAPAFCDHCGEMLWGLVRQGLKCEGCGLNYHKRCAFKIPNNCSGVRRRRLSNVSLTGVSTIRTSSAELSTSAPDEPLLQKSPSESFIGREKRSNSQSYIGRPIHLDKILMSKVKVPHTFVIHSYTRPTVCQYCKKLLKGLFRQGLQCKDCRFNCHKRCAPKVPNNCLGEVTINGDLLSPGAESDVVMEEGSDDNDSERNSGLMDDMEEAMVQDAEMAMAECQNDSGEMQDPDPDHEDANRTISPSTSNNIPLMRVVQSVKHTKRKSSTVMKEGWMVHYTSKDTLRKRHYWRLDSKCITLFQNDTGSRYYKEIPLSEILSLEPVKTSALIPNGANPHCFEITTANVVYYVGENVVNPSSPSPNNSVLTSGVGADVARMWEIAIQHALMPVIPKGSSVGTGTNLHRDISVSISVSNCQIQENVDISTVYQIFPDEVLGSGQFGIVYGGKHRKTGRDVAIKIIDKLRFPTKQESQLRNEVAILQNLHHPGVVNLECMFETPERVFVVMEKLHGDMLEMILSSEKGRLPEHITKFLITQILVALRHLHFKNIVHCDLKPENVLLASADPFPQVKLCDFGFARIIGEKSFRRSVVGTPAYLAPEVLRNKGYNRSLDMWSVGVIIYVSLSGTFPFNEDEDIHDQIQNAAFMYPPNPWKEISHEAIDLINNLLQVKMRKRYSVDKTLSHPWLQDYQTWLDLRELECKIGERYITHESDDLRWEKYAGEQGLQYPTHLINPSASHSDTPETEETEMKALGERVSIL
Insulin prom inh cell count = recorded beside Insulin prom inh, whose call it bears; normalized cell count, %; measured here: cell count, toxicity; reference of the scale not given here;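 cells exposed to compound for 48 h; stained nuclei by imaging scaled within each plate; lower means fewer cells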
HSV replic up primary fold = recorded beside HSV replic up, whose call it bears; fold increase; compound at 10 µM; measured here: primary screen fold increase 10 uM; tested in PC3 cells;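 GFP signal in the first replicate; 1 = infected wells without compound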
* hit, by the source's call; i = inactive; ? = inconclusive; · = not tested or not shown; & = joins results of further samples.

SMILES	HSV replic up	HSV replic up primary fold	Insulin prom inh	Insulin prom inh cell count	RGS16-Gao	GALR2 ag	PKD1 kinase inh
COc1ccc(CCNC(=O)/C=C/c2ccc(OC)c(S(=O)(=O)N3CCOCC3)c2)cc1	i	0.71	·	·	101.4	·	·
Cc1nc2sc(-c3ccccc3)nn2c(=O)c1Br	i	0.87	50.0	108.7	104.5	-0.5	-14.4
CC(=O)Nc1cccc(Oc2ccc([N+](=O)[O-])cc2Cl)c1	i	1.04	5.0	97.4	113.9	·	0.2
CC1CCN(S(=O)(=O)c2ccc(Oc3ccc([N+](=O)[O-])cc3)cc2)CC1	·	·	7.1	101.0	105.5	-0.7	-13.3
CC(C)CN=c1cc(-c2ccccc2)oc2ccc(Cl)cc12	i	0.75	2.9	83.6	103.2	1.3	0.2
O=C(Cn1cnc2ccccc2c1=O)N1CCOCC1	i	0.9	29.7	77.3	99.9	0.5	-12.8
COc1cccc(Nc2nc(N)nc(CCl)n2)c1	i	0.63	·	·	101.7	·	·
S=c1[nH]nc(-c2ccncc2)n1Cc1ccccc1	i	0.93	·	·	104.3	-4.0	-8.2
O=C(/C=C/c1ccco1)Nc1ccccc1N1CCOCC1	i	1.04	-21.4	29.9	98.9	0.1	-4.0
Fc1ccc(Cn2nnnc2C(c2cccs2)N2CCCCCC2)cc1 (configuration not stated)	·	·	·	·	118.5	-2.0	1.5
CC(CN1CCCCC1)C(=O)NNC(=O)C12CC3CC(CC(C3)C1)C2 (configuration not stated)	i	0.9	-41.7	113.3	102.7	·	-4.8
S=C(Nc1ccc2nsnc2c1)N1CCCCCC1	i	1.13	-92.9	122.5	91.7	·	1.8
O=C(O)C1CC=CCC1C(=O)Nc1ccc2c(c1)OCCO2 (configuration not stated)	i	0.51	37.5	171.7	113.8	-1.5	-4.1
O=C(O)C1C2C=CC(C2)C1C(=O)NCc1ccc2c(c1)OCO2 (configuration not stated)	i	0.99	34.8	135.6	106.4	-2.2	-2.1
Cc1cc(N2C(=O)C3C4C=CC(C4)C3C2=O)ccc1NC(=O)c1cccs1 (configuration not stated)	i	0.99	23.3	87.9	94.6	-0.6	-10.7
NC1=NC(=Nc2ccccc2)c2ccccc21	i	0.927	·	·	94.0	-2.0	-3.0
O=C(CCCOc1ccc(Cl)cc1)N1CCCCCC1	i	0.83	-30.8	150.0	80.7	-1.0	-8.8
COc1nc(NCCC2=CCCCC2)nc(OC)n1	i	0.9	·	·	95.3	-2.6	2.4
CC(C)(C)OC(=O)N1CCCN(C(=O)Nc2ccccc2)CC1	i	0.99	·	·	91.6	·	·
O=[N+]([O-])c1ccc(Cl)c(S(=O)(=O)NCC2CCCO2)c1 (configuration not stated)	i	0.86	-25.0	57.0	112.5	0.3	-11.2
Cc1ccccc1Cn1c(C)cc(C)c(C#N)c1=O	i	0.96	·	·	100.7	·	9.4
O=C(Nc1ccc(Cl)cc1)OCc1ccccn1	i	1.01	-16.7	157.6	91.4	-1.4	-0.3
CC(NC(=O)Cn1c(=O)oc2cc(S(=O)(=O)N3CCCC3)ccc21)c1ccccc1 (configuration not stated)	i	0.82	·	·	43.5	-0.4	-3.5
COc1ccc(C(=O)Nc2cnc3sc(C)nn3c2=O)cc1	i	1.01	·	·	100.4	·	-7.5
Cc1ccc(CNS(=O)(=O)NCc2ccccc2F)cc1	·	·	-153.8	106.7	99.2	·	-4.6
Nc1sc2c([n+]1CCCS(=O)(=O)[O-])CCCC2	i	1.01	53.3	131.2	95.8	·	1.6
CN(Cc1ccccc1)C1CC(=O)N(c2ccc(C(=O)O)cc2)C1=O (configuration not stated)	i	0.98	-295.4	87.2	98.3	-1.4	-3.5
CCCCOc1ccccc1C(=O)NCCCCCC(=O)O	·	·	9.1	122.8	105.8	-0.8	-0.6
O=C(CN(C(=O)CCC(=O)Nc1nccs1)c1cccc(F)c1)NCC1CCCO1 (configuration not stated)	i	0.94	·	·	100.7	-0.7	-12.9
COc1ccc(C2C(C(=O)C(C)(C)C)=C(O)C(=O)N2Cc2ccccc2)cc1 (configuration not stated)	i	1.03	11.1	81.0	108.5	1.6	-1.2

Taken from above:
In RGS16-Gao, CC(C)CN=c1cc(-c2ccccc2)oc2ccc(Cl)cc12 reads 103.2
In PKD1 kinase inh, O=C(CN(C(=O)CCC(=O)Nc1nccs1)c1cccc(F)c1)NCC1CCCO1 (configuration not stated) reads -12.9

Shown as a markdown table: three of the compounds above
| smiles | HSV replic up | HSV replic up primary fold | Insulin prom inh | Insulin prom inh cell count | RGS16-Gao | GALR2 ag | PKD1 kinase inh |
| --- | --- | --- | --- | --- | --- | --- | --- |
| O=[N+]([O-])c1ccc(Cl)c(S(=O)(=O)NCC2CCCO2)c1 (configuration not stated) | i | 0.86 | -25.0 | 57.0 | 112.5 | 0.3 | -11.2 |
| Cc1ccccc1Cn1c(C)cc(C)c(C#N)c1=O | i | 0.96 | · | · | 100.7 | · | 9.4 |
| O=C(Nc1ccc(Cl)cc1)OCc1ccccn1 | i | 1.01 | -16.7 | 157.6 | 91.4 | -1.4 | -0.3 |

The results go on.
SMILES	HSV replic up	HSV replic up primary fold	Insulin prom inh	Insulin prom inh cell count	RGS16-Gao	GALR2 ag	PKD1 kinase inh
Cc1cc(NC(=O)CN2CCCCCCC2)no1	i	1	2.9	93.9	93.2	-1.8	-6.1
COc1ccc(CCNC(=O)CN(C)S(=O)(=O)c2ccc3c(c2)CCC(=O)N3)cc1OC	i	0.93	·	·	80.8	-2.3	-6.7
CN(Cc1nc(-c2cccnc2)no1)S(=O)(=O)c1ccc(Br)cc1	i	0.94	-36.8	97.9	100.6	0.1	-6.6
Clc1ccc2nc(CN3CCCCC3)cn2c1	i	0.88	14.3	89.1	102.8	-0.9	1.0
Cc1ccc(NC(=O)Nc2c(C)n(C)n(-c3ccccc3)c2=O)cc1C	i	0.93	-46.7	92.5	95.6	·	-5.6
O=C(O)C(Cc1c[nH]c2ccccc12)N1Cc2ccccc2C1=O (configuration not stated)	i	1.15	·	·	98.8	·	-0.7
CCOc1ccc2cc(S(=O)(=O)N3CCN(C)CC3)ccc2c1	·	·	29.4	159.7	101.7	-1.5	-1.3
COc1ccc(CNC(=O)c2c(O)c3ccccc3n(C)c2=O)cc1OC	i	1.06	7.7	131.8	93.0	-1.0	-4.0
Cc1nn(Cc2ccc(C(=O)N3N=C(C(F)F)CC3(O)C(F)F)o2)c(C)c1[N+](=O)[O-] (configuration not stated)	i	0.87	40.0	105.4	79.6	-2.7	3.3
COc1ccc(-c2nc3c(Br)c(N)c(Br)cc3o2)cc1	·	·	·	·	149.9	-2.7	-1.3
COc1ccc(C2CC(c3cccs3)=NN2C(=O)CSc2nc3ccccc3o2)cc1 (configuration not stated)	i	1.02	·	·	94.9	-0.5	-5.1
Cc1cc(=O)n2c3c(sc2n1)C(=O)N(Cc1ccccc1)C3=O	i	0.66	64.3	105.4	84.4	-1.2	3.1
Cc1ccccc1OCc1n(CC(=O)OC2CC(C)CCC2C(C)C)c2ccccc2[n+]1C (configuration not stated)	i	0.61&0.57	-28.6&-42.9	72.3&51.3	102.7&82.2	·	5.7&2.6
CCC1CCCCN1S(=O)(=O)c1ccc(S(=O)(=O)N(Cc2cccs2)C2CC2)cc1 (configuration not stated)	i	0.89	·	·	104.1	-3.4	-7.1
O=C(CN1C(=O)C2CCc3[nH]c4ccccc4c3C2C1=O)N1CCCC1 (configuration not stated)	i	1.06	·	·	102.9	-3.2	-13.1
O=[N+]([O-])c1ccc(Sc2cccc3cccnc23)c2cccnc12	i	1.04	·	·	102.8	·	1.6
O=C(COC(=O)Cc1ccsc1)NCc1ccc(Cl)cc1	i	0.97	21.9	128.0	94.2	-2.9	8.0
COC(C)(C)c1cc(C(C)(C)C)nc(N)n1	i	0.91	10.0	152.8	100.5	-2.7	3.3
Cc1[nH]c(=S)c(C#N)c(-c2ccccc2)c1C(=O)Nc1ccccc1	i	0.95	·	·	98.6	·	·
CCOC(=O)N1CCN(C(=O)c2cc(COc3ccc4ncccc4c3)on2)CC1	i	0.91	11.1	66.7	99.5	·	1.9
COc1ccccc1OCCNC(=O)c1ccc(S(=O)(=O)N(C)C)cc1	i	0.92	·	·	114.8	-2.9	2.3
COc1ccccc1CC(=O)NCc1ccc2c(c1)OCO2	i	0.99	-90.7	116.6	101.2	0.5	6.9
CCNC(=S)N/N=C/c1cn(Cc2ccc(F)cc2)c2ccccc12	·	·	·	·	99.7	-1.3	3.9
O=C(CCCCCn1c(=S)[nH]c2ccccc2c1=O)NCc1ccc2c(c1)OCO2	i	0.86	27.3	107.0	98.0	0.2	-0.3
COc1ccc(N2CCN(C(=O)CCCOc3cc(=O)n(C)c4ccccc34)CC2)cc1	i	0.91	·	·	106.5	-0.7	19.0
COC(=O)c1ccc2c(=O)[nH]c(CSc3nc(-c4ccc(F)cc4)cs3)nc2c1	i	0.95	30.8	121.1	108.6	-0.7	-10.2
Cc1occc1C(=O)N=Nc1c(O)n(C)c2ccccc12	i	1.02	-3.9	110.8	93.1	-1.3	-13.7
COc1cccc(/C=C/C(=O)NCCc2ccc3c(c2)OCCO3)c1	i	1.01	·	·	99.0	-0.9	5.0
CC(=O)Oc1ccc(N(C(C)=O)S(=O)(=O)c2cccs2)cc1	i	0.99	-55.6	117.8	91.9	-1.5	-5.1
Cc1ccc(CN2CCN(c3ccccn3)CC2)s1	i	0.84	72.2*	101.6*	99.0	-0.4	5.9

Three of the compounds above, field by field:
canonical_smiles: Cc1[nH]c(=S)c(C#N)c(-c2ccccc2)c1C(=O)Nc1ccccc1
  HSV replic up: i; HSV replic up primary fold: 0.95; Insulin prom inh: ·; Insulin prom inh cell count: ·; RGS16-Gao: 98.6; GALR2 ag: ·; PKD1 kinase inh: ·

canonical_smiles: CCOC(=O)N1CCN(C(=O)c2cc(COc3ccc4ncccc4c3)on2)CC1
  HSV replic up: i; HSV replic up primary fold: 0.91; Insulin prom inh: 11.1; Insulin prom inh cell count: 66.7; RGS16-Gao: 99.5; GALR2 ag: ·; PKD1 kinase inh: 1.9

canonical_smiles: COc1ccccc1OCCNC(=O)c1ccc(S(=O)(=O)N(C)C)cc1
  HSV replic up: i; HSV replic up primary fold: 0.92; Insulin prom inh: ·; Insulin prom inh cell count: ·; RGS16-Gao: 114.8; GALR2 ag: -2.9; PKD1 kinase inh: 2.3

Remaining list, next part.
SMILES	HSV replic up	HSV replic up primary fold	Insulin prom inh	Insulin prom inh cell count	RGS16-Gao	GALR2 ag	PKD1 kinase inh
CN(CCCNC(=O)Cn1cccc1C(=O)c1ccccc1)C1CCCCC1	i	0.98	·	·	107.4	·	3.7
Cc1cc(S(=O)(=O)NCc2cccs2)ccc1-n1cnnn1	i	0.95	·	·	16.5	-2.0	3.3
COc1ccc(OC)c(C2C(C(=O)Nc3nc4ccccc4s3)=C(C)NC3=C2C(=O)CCC3)c1 (configuration not stated)	i	0.85	·	·	100.3	14.2*	-3.0
COc1ccccc1C1=NOC(Cn2c(NCCOCCO)nc3c2c(=O)n(C)c(=O)n3C)C1 (configuration not stated)	i	0.8	·	·	104.5	·	·
Cc1cc(Cl)ccc1NC(=O)CCC(=O)N/N=C/c1cc([N+](=O)[O-])ccc1O	i	1.1	·	·	83.0	·	2.7
COc1ccc(Br)cc1C(=O)Nc1ccccc1-c1ccccc1	i	1.15	3.5	77.9	103.8	-1.7	28.0
COc1ccc(C(c2c(N)[nH]c(=S)[nH]c2=O)c2c(N)[nH]c(=S)[nH]c2=O)cc1	i	1.02	·	·	97.1	·	·
CC(C)CCn1nnnc1C(c1ccc(F)cc1)N1CCC(C(N)=O)CC1 (configuration not stated)	i	0.85	31.2	96.6	93.0	-1.5	1.7
CC(=O)c1cccc(NC(=O)C2CCN(C(=O)c3ccc([N+](=O)[O-])cc3)CC2)c1	i	0.9	·	·	103.2	·	-4.7
Cc1nc(-c2cccnc2)sc1C(=O)Nc1cccc(C(F)(F)F)c1	i	0.83	3.3	103.5	103.1	-1.9	2.2
CN1CCN(C(=S)NC(=O)/C=C/c2ccccc2Cl)CC1	i	1.02	·	·	131.6	·	5.4
CCOC(=O)CSc1nnc(-c2cc(OC)c(OC)c(OC)c2)o1	i	0.94	·	·	104.3	·	-0.4
O=C(NC1CC2CCC1C2)C1CCN(S(=O)(=O)c2ccc(-c3nn[nH]n3)cc2)CC1 (configuration not stated)	i	0.96	·	·	104.6	0.6	1.5
CC1(C)CC(=O)C2=C(C1)N(Cc1cccnc1)C(=O)C2(NC(=O)c1ccc(F)cc1)C(F)(F)F (configuration not stated)	i	0.82	24.3	68.2	103.3	-0.8	-3.5
COc1ccc(/C=C/C(=O)c2cc(F)ccc2OC(=O)c2ccccc2)cc1OC	?	·	-34.1	34.0	·	5.5*	-3.3
CC1CCN(CCCNC(=O)COc2cc(=O)n(C)c3ccccc23)CC1	i	0.89	·	·	102.4	-1.5	-6.9
CCN(CC)CCCNC(=O)C1c2ccccc2Oc2ccccc21	i	0.9	·	·	104.2	-2.7	-1.6
